# Bioassay records as filed in PubChem.
# S aureus helic = inhibitors of S. aureus replicative helicase, primary screen, biochemical, fluorescence unwinding readout | replicative DNA helicase (DnaC/DnaB), Staphylococcus aureus | inhibition, %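 (tested at about 80 µM)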 | purified S. aureus helicase, fluorescence unwinding assay; about half of the hits fall short of the stated cut | actives 0.05% (n = 120,000);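 active = both duplicates at 50% or more, or one of them with a favoured structure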;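 note: 0% = mean of negative control wells and 100% = mean of positive control wells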
# MgrA-DNA mod = S. aureus MgrA activity modulators, primary screen, biochemical, S. aureus Newman, fluorescence polarization; MgrA-DNA binding; inhibition, %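 (about 10 µg/mL by stock and volumes)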; actives 0.13% (n = 84,000); AID 602314, 2012;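 active = above 50% in either of two replicates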;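 note: 0% = protein plus DNA without compound and 100% = DNA alone without protein; higher means less MgrA bound to DNA so lower polarization; one replicate is shown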
# Numbers without * were called inactive; / = not tested or not shown. Only part of the results is shown; the hit share may differ from the screen's.
S aureus helic	MgrA-DNA mod	structure
/	0.4	COC(=O)C(=NNc1ccc(-n2nc(C)cc2C)cc1)C(=O)OC
3	/	COC(=O)c1ccc(C)c(NC(=O)C(NC(C)=O)C(C)C)c1 (stereo not drawn)
-1	/	Cc1ccc2c(c1)N(CC(=O)N(C)Cc1ccccc1)C(=O)CO2
16	/	CC(NC(=O)C(c1ccccc1)c1ccccc1)C(=O)Nc1ccc(Br)cc1 (stereo not drawn)
/	-0.7	COc1ccc(CN(Cc2cccn2C)S(=O)(=O)c2ccccc2)cc1
/	-0.4	C=CCN1C(=O)/C(=c2\sc3n(c2=O)C(c2cccs2)C(C(=O)OC)=C(C)N=3)c2ccccc21 (stereo not drawn)
0	2.8	NC(=S)Cc1ccc(CC(N)=S)o1
28	2.1	CC1=C(C(N)=O)C(c2ccccc2F)NC(=O)N1 (stereo not drawn)
-3	/	CC1CCc2ccc(F)cc2N1S(=O)(=O)c1ccc(Cl)s1 (stereo not drawn)
12	/	CCOC(=O)Cc1csc(N(C)C)n1
2	/	CCCOC(=O)COc1ccc2c(=O)c(-c3ccccc3)coc2c1
/	0.9	S=C(Nc1ccccc1)Nc1ccccc1-n1cccc1
7	/	Cn1ncc2c(c(SCc3ccc(Cl)cc3Cl)nn2C)c1=O
/	-1.9	CN(C)c1ccc(CC(C#N)c2ccc(N)cc2)cc1 (stereo not drawn)
30	/	CCn1c(=S)sc2c(=O)n3[nH]c(=O)c4ccccc4c3nc21
0	4.1	CCNC(=O)COc1ccc(OCc2ccccc2)cc1
-6	/	COc1ccccc1NS(=O)(=O)c1ccc(C)c(C(=O)N2CCCC2)c1
9	-2.0	NCCC(c1ccccc1)c1ccccc1
8	/	O=C(COC(=O)C1CC2CCCC(C1)C2=O)NC1CCS(=O)(=O)C1 (stereo not drawn)
16	/	CCOC(=O)c1c(Nc2nc3ccccc3nc2N2CCN(C(=O)OCC)CC2)sc(C)c1C
/	1.0	CN(/N=C/c1ncc(C(F)(F)F)cc1Cl)C(=O)Nc1ccc(Cl)cc1
11	-2.4	COC(=O)c1cccc(N2C(=O)c3ccc(C(=O)O)cc3C2=O)c1
7	/	C=CCn1c(SCCN2CCCCC2)nnc1C1CCCCC1
/	-0.2	CCOC(=O)C(C#N)=C1CCN(Cc2ccccc2)CC1
4	0.7	CCC(=O)c1ccc(OCC(O)CN2CCN(S(=O)(=O)N3CCCCC3)CC2)cc1 (stereo not drawn)

# 7 of the compounds above, with two lines to a compound:
# Each structure is followed by: S aureus helic | MgrA-DNA mod
Cc1ccc2c(c1)N(CC(=O)N(C)Cc1ccccc1)C(=O)CO2
    -1 | /
CC(NC(=O)C(c1ccccc1)c1ccccc1)C(=O)Nc1ccc(Br)cc1 (stereo not drawn)
    16 | /
COc1ccc(CN(Cc2cccn2C)S(=O)(=O)c2ccccc2)cc1
    / | -0.7
C=CCN1C(=O)/C(=c2\sc3n(c2=O)C(c2cccs2)C(C(=O)OC)=C(C)N=3)c2ccccc21 (stereo not drawn)
    / | -0.4
NC(=S)Cc1ccc(CC(N)=S)o1
    0 | 2.8
CC1=C(C(N)=O)C(c2ccccc2F)NC(=O)N1 (stereo not drawn)
    28 | 2.1
CC1CCc2ccc(F)cc2N1S(=O)(=O)c1ccc(Cl)s1 (stereo not drawn)
    -3 | /

# Continuation:
S aureus helic	MgrA-DNA mod	structure
/	1.1	Cc1nn(-c2ccccc2)nc1-c1nnc(-c2cccc3ccccc23)o1
-1	/	CC(=O)Nc1sc(-c2ccccc2)nc1-c1ccccc1
15	/	Cc1ccc(S(=O)(=O)CC2CSc3nc4ccccc4n32)cc1 (stereo not drawn)
11	/	CCOc1ccc(S(=O)(=O)N2CCN(CN3C(=O)CC4(CCCC4)C3=O)CC2)cc1
5	19	CCSc1ncnc2c(-c3ccc(OC)cc3)nsc12
3	-0.4	C/C(=N\N)c1ccc2[nH]c3c(c2c1)CCC/C3=N\N
8	1.6	CC(C)(C)c1ccc(OCCCn2c(=O)sc3ccccc32)cc1
9	4.5	CC(C)(CO)NC(=O)CSc1ccc(C(F)(F)F)cc1Cl
/	4.5	Cc1ccccc1C(=O)OCCN1C(=O)c2cccc3c(N4CCOCC4)ccc(c23)C1=O
2	2.0	CC1(C)CC(NC(=O)/C=C/c2ccc(F)cc2)CC(C)(C)N1
0	-0.8	NCC1NCCc2ccccc21 (stereo not drawn)
-6	/	O=C(Cn1cnc2c(cnn2-c2ccc(F)cc2)c1=O)NC1CCCC1
-39	/	O=C(Cc1n[nH]c(=O)[nH]c1=O)N/N=C/c1ccccc1
-24	-2.6	Cc1nc2ccccc2n1CC(=O)OCC(=O)N1c2ccccc2CC1C (stereo not drawn)
7	/	O=c1c(N2CCCCC2)csc2ccccc12
10	-0.9	CC1CCCCC1NC(=O)CSc1nncn1N (stereo not drawn)
-16	/	Cn1c(=NC(=O)CC2OC(=O)c3ccccc32)sc2ccccc21 (stereo not drawn)
/	-2.3	CC(C)(C)c1nn(Cc2ccccc2)c(C(=O)O)c1Br
/	-2.7	Cn1c(Sc2cccs2)nc(C#N)c1C#N
/	0.1	CCOC(=O)c1c(NC(=O)c2cc3ccccc3oc2=O)sc2c1CCC(C)C2 (stereo not drawn)
-12	/	O=C(Cn1cc(CO)c2ccccc21)Nc1ccccc1
1	/	O=C(NC(Cc1ccccc1)c1nc2ccccc2[nH]1)c1ccccc1 (stereo not drawn)
0	/	O=C(/C=C/c1ccc(OC(F)F)cc1)NCc1ccccn1
8	/	COc1ccc(OCCCn2c(=O)oc3ccccc32)cc1
2	/	Oc1ccc(-c2nc(-c3ccccc3)c3ccccn23)cc1
15	4.6	Cc1nc2c(C(=O)N3CCc4ccccc4C3)cnn2c(C)c1Cc1ccc(Cl)cc1
14	0.2	COC(=O)C1CCN(C(=O)c2ccccc2)CC1
/	-1.6	CC(C)(C)c1ccc(C(=O)C(C#N)=C2SCCCS2)cc1
39	/	N#CCCN(C(=O)c1ccc2c(=O)n3c(nc2c1)CCCCC3)c1ccccc1
-9	/	CC(C)n1nccc1NC(=O)c1cccnc1Sc1ccccc1
-25	/	CC1CCN(S(=O)(=O)N2CCCC(C(=O)NCCCN3CCN(c4ccc(F)cc4)CC3)C2)CC1 (stereo not drawn)
/	-3.9	CC(C)(C)C(=O)OCc1nc(-c2cc(-c3ccccc3)no2)cs1
10	-1.8	Cc1ccc(C)c(N2CCN(S(=O)(=O)c3ccc4c(c3)CCC(=O)N4)CC2)c1
-12	0.1	CC(C)(C)C(=O)COC(=O)c1cccc(NC(=O)c2ccco2)c1
1	-2.2	Cc1n[nH]c(C)c1S(=O)(=O)N1CCc2ccccc2C1
-11	/	CC(C)(C)NC(=O)COc1ncnc2sccc12
33	/	CCCCOc1ccc(-c2ncc(N)cn2)cc1
5	/	COC(=O)c1ccc(CN2C(=O)NC3(CCCC3)C2=O)cc1
6	3.9	C=CCCC1(C)NNc2nc(=O)c(C)nn21 (stereo not drawn)
4	2.2	CC(=O)N(CCC(c1ccccc1)c1ccco1)Cc1ccc(N(C)C)cc1 (stereo not drawn)
11	3.7	COc1ccc2[nH]c3c(OC)ncnc3c2c1
17	0.8	COC(=O)c1ccc2c(c1)sc(=NC(=O)CSC(C)=O)n2C
/	1.2	O=C1CSCC(=O)N1c1ccccc1
22	/	CCCCN(CC)C(=O)C1CCCN(S(=O)(=O)c2cccc3nsnc23)C1 (stereo not drawn)
-1	-1.7	O=C1Cc2ccccc2C(=O)N1Cc1ccc2c(c1)OCO2
5	-0.5	Cc1nnc(SCc2ccccc2)n1N
13	/	CCN1CCc2c(OCC(=O)NCc3ccco3)cccc2C1=O
-6	1.4	COc1ccc(CN(C(=O)c2ccco2)c2ccccc2)cc1
-20	/	Brc1cccc(-c2noc(CCCOc3ccccc3)n2)c1
5	-4.1	Cc1cc(=O)n2c3c(cc(S(=O)(=O)NC4CC4)cc13)CCC2

# 3 entries already listed, arranged by the number in S aureus helic, descending:
S aureus helic	MgrA-DNA mod	structure
10	-0.9	CC1CCCCC1NC(=O)CSc1nncn1N (stereo not drawn)
9	4.5	CC(C)(CO)NC(=O)CSc1ccc(C(F)(F)F)cc1Cl
5	/	COC(=O)c1ccc(CN2C(=O)NC3(CCCC3)C2=O)cc1

# (next part)
S aureus helic	MgrA-DNA mod	structure
-12	-0.3	CN1CCN(C(=O)c2cc(-c3ccc(F)cc3)nc3ccccc23)CC1
4	5.9	C/C(=N\N1C(=O)c2ccccc2C1=O)C1C(=O)c2ccccc2C1=O
18	/	CC(C)n1nc(C(=O)N2CCc3ccccc32)c2ccccc2c1=O
16	/	CCc1cc(SC#N)ccc1N
-7	/	C=CCn1c2c(c(=O)[nH]c1=O)C(c1ccccc1)C1=C(COC1=O)N2 (stereo not drawn)
13	5.2	Oc1c(C(O)(C(F)(F)F)C(F)(F)F)ccc2cccnc12
4	/	O=C(c1ccccc1NS(=O)(=O)c1ccc(F)cc1)N1CCN(c2ccccc2F)CC1
-7	7.2	CN(C)c1ccc(-c2cc(-c3ccccc3)c(C#N)c(N)n2)cc1
/	-0.7	CN(C)/C=N/c1nnc(Sc2ncccc2[N+](=O)[O-])s1
5	-0.7	Cc1c(NC=O)c(=O)n(-c2ccccc2)n1C
4	-0.9	O=C(CCSCc1cnn(-c2ccccc2)c1-n1cccc1)N1CCOCC1
/	3.5	CSc1c(C#N)c(N)nc2sc(C(=O)c3ccc(F)c(F)c3)c(N)c12
/	1.0	NC(=Nc1ccccc1)NC(=O)c1nc(Cl)c(N)nc1N
8	1.9	COC(=O)Cn1c(=N)n(C)c2ccccc21
-17	/	CCCc1cc(=O)[nH]c(SCC(=O)NC(C)(C)C)n1
/	-2.5	CN(CC(=O)Nc1ccccc1)C(=O)c1ccccc1
14	/	COCCNC(=O)c1cc(Br)c(C)c(C)c1C
/	0.0	C=CCn1c(=S)[nH]c2scc(-c3ccc(OC)cc3)c2c1=O
/	-1.1	Cn1c(-c2ccc(C#N)cc2)nc(=O)c2cc(Cl)ccc21
13	-1.4	CCCOc1ccc(C(=O)N(C)c2ccccc2)cc1
-8	/	CCOc1ccc(-n2c(O)c(C=Nc3cc(C)on3)c3ccccc3c2=O)cc1
6	/	CC(=O)Oc1ccc2c(=O)c(Oc3ccccc3)coc2c1
9	/	Cc1ccc(N(CC(=O)Nc2ccc(Br)cc2)S(=O)(=O)c2c(C)n[nH]c2C)cc1
-4	1.1	CCN(c1cccc(C)c1)S(=O)(=O)c1cc2[nH]c(=O)c(=O)[nH]c2cc1C
6	/	O=C1CC(C(=O)N(Cc2ccccc2)c2ccccc2)CN1Cc1ccco1 (stereo not drawn)

# Compound profiles, as listed above.
# Shown for `COC(=O)c1ccc2c(c1)sc(=NC(=O)CSC(C)=O)n2C` : S aureus helic = 17; MgrA-DNA mod = 0.8
# Shown for `CN(/N=C/c1ncc(C(F)(F)F)cc1Cl)C(=O)Nc1ccc(Cl)cc1` : S aureus helic = /; MgrA-DNA mod = 1.0

# Continuation:
S aureus helic	MgrA-DNA mod	structure
8	-3.9	Cc1nc2ccccn2c1-c1csc(Nc2ccc(Br)cc2Br)n1
-23	/	CCOC(=O)N1CCC(NC(=O)c2cc(C(=O)NCC(OC)OC)ccc2CO)CC1
-13	/	Cc1ccc(COC(=O)c2cccn2C)cc1
/	1.8	S=C1SCN(CC2CC2)CN1CC1CC1
17	/	CCOC(=O)C1CCN(c2ccccc2CN2CCC(c3ccccc3OC)CC2)CC1
7	0.7	CCC(=O)NC(=S)Nc1cc(-c2nc3ccccc3o2)ccc1OC
5	/	Cn1c(C(C#N)S(=O)(=O)c2ccc(Br)s2)nc2ccccc21 (stereo not drawn)
45	/	Clc1nccc2nc(N3CCCC3)ncc12
4	/	O=S(=O)(/C=C/c1ccccc1)N1CCN(Cc2ccccc2)CC1
5	0.4	O=C(CCCCn1c(=O)[nH]c2ccsc2c1=O)N1CCCCC1
-3	/	Cc1ccc(N2C(=O)C=CC2=O)cc1
0	0.6	CC(=O)Oc1ccccc1C(=O)Oc1ccc(C#N)cc1
/	-2.2	Cc1cc(-c2nnc(C(F)(F)F)o2)ccc1NC(=O)c1cccs1
-10	3.9	Nc1nc2n(n1)C(c1ccc(Br)cc1)C=C(c1ccccc1)N2 (stereo not drawn)
3	2.4	CNC(=O)c1ccc(/C=C2/Oc3ccccc3N(Cc3cccc(C)c3)C2=O)cc1
-15	0.7	CCC(=O)Nc1ccc2nc(C3CC3)n(Cc3ccc(Cl)cc3)c(=O)c2c1
8	/	COc1ccc(-n2cnc3cc(C(=O)NCc4ccccn4)ccc32)cc1
2	/	COc1cc2c(cc1OC)CN(Cc1cc(=O)n3c(-c4ccccc4)csc3n1)CC2
-15	/	CCOC(=O)C1=C(C)NC(=O)C1
20	/	CCc1ccnc(NS(=O)(=O)c2ccc(C)c(Cl)c2)c1
-14	/	Cc1nc(=O)c(-c2ccccc2)c(C)n1Cc1ccccc1
/	-5.8	CCCc1cc(=O)[nH]c(SC/C=C/c2ccccc2)n1
-11	/	Nc1[nH]c(=O)[nH]c(=O)c1N=Nc1ccc2c(c1)OCCO2
11	/	COc1ccc(C(=O)OCC(=O)N2CCCCC2)cc1
8	3.0	CC(C)CNC(=O)c1ccc2c(c1)C(=O)N(C1CCCCC1)C2=O
-4	0.5	CCCSc1ncc(Cl)c(C(=O)Nc2nc(C)c(C(=O)OCC(C)C)s2)n1
-6	/	O=C(CNC(=O)c1ccco1)OCN1C(=O)c2ccccc2C1=O
/	-1.9	Cc1c(C)c(C)c(CO)c(C)c1C
0	2.1	COC(=O)CNc1nc(C2CC2)nc2c1nnn2Cc1ccccc1Cl
6	/	COC(=O)c1cc(S(=O)(=O)NCC2CCN(Cc3ccc(Cl)cc3)CC2)cn1C
3	-6.2	CC(=O)N/N=C(/c1ccccc1)C(O)c1ccccc1 (stereo not drawn)
/	-0.6	CC(=Nc1cccc(Cl)c1)c1sc2ccccc2c1O

# 2 records picked at random from the list so far:
S aureus helic	MgrA-DNA mod	structure
/	-0.6	CC(=Nc1cccc(Cl)c1)c1sc2ccccc2c1O
-6	/	O=C(CNC(=O)c1ccco1)OCN1C(=O)c2ccccc2C1=O
